# From PubChem BioAssay
# Mtb growth: M. tuberculosis H37Rv growth inhibitors, H37Rv strain (AID 1626) | M. tuberculosis H37Rv growth inhibition; higher % means a stronger effect | inhibition, % at 10 µM; hits with a dose series show IC50 in µM | 220,000 tested, 0.95% active;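 active = confirmed in a dose series; inconclusive = inhibition above 80% but not taken into the dose series; inactive = below 80% or under 30% at every dose of the series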;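 also: bacteria incubated seven days before Alamar blue readout; 0% = bacteria only wells and 100% = bacteria with antibiotic wells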
# RecA intein inh: blocks M. tuberculosis RecA intein splicing; P9WHJ3; cell-free RecA intein splicing, fluorescence; inhibition, %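 (about 9 µM by stock and volumes)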; 290,000 tested, 0.75% active; AID 2221; in the data active = inhibition above about 30%; inconclusive = no clear call, values can overlap the other calls;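 also: 0% = vehicle wells and 100% = reference inhibitor control wells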
# Target sequence (P9WHJ3 whole entry, looked up): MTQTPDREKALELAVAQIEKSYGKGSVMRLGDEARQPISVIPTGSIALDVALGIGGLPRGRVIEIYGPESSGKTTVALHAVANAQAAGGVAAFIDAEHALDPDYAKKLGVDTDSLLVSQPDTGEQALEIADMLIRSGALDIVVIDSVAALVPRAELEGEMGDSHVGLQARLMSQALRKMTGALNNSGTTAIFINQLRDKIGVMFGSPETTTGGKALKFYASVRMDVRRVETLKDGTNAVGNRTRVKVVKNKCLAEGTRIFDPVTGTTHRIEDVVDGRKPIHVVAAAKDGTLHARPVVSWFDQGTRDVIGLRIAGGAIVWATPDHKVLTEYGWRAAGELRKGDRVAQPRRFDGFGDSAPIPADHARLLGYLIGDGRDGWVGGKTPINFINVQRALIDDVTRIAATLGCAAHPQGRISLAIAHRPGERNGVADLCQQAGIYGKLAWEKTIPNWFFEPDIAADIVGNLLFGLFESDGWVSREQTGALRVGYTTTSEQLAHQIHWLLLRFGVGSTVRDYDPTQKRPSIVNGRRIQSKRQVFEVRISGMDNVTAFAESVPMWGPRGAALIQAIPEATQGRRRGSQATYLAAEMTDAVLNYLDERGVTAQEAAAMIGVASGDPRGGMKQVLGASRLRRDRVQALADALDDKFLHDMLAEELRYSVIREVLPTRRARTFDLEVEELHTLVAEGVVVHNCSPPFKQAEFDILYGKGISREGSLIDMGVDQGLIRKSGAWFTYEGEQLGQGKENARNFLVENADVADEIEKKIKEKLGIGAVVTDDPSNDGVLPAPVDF
# Arbovirus anti: blocks arbovirus infection; arbovirus infection cell-based antiviral screen; inhibition, % at 10 µM; 200,000 tested, 0.37% active; AID 1251;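 active = inhibition from about 30%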;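 also: bluetongue infection of BSR cells; cell survival read as ATP light after 72 h; 0% = infected wells without compound and 100% = uninfected wells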
# Mtb bLac sens: beta-lactam sensitization of Mtb H37Rv; M. tuberculosis H37Rv growth with meropenem, percent inhibition; hits of this screen are not shown here; inhibition, % at 25 µM; 330,000 tested, 0.27% active;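 active = about 74% or more and at least 40 points above the plate without the antibiotic, then above 30% in a dose series; inconclusive = first-round hits that could not be retested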;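 also: growth measured after seven days incubation then overnight dye step; 0% = bacteria only wells and 100% = bacteria with antibiotic; twin plates without the antibiotic show which effects depend on it; some results filed as inactive read as strong as hits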
# YopH inh: YopH (Yersinia) phosphatase inhibition | fluorescence Ex485/Em525 | inhibition, %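 (about 10 µM by stock and volumes)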 | 140,000 tested, 0.16% active | AID 898;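 active = inhibition of 50% or more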;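 also: controls were vehicle for no effect and minimum signal wells for full effect; inactives centre near -20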
# Arbovirus anti repeat: second read-out of Arbovirus anti, no call of its own (marks repeat the call); inhibition, %; measured here: 10K subset replicate screen; many hits read low in the repeat;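 first of two repeat runs on a subset; 0% = infected and 100% = uninfected wells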
# The depositor's hits bear a star; ? = inconclusive; . = not tested or not shown. The list is partial. The share of hits here may be higher or lower than overall.
SMILES,Mtb growth,RecA intein inh,Arbovirus anti,Mtb bLac sens,YopH inh,others
CN(C)S(=O)(=O)c1ccc(NC(=O)c2ccc(Br)o2)cc1,2%,-1.4,-2,-7,-4,
O=S(=O)(c1ccccc1)N1CCN2CCCC2C1 (stereo not given),.,-0.7,.,-6,.,
COC(=O)c1ccc(NC(=O)CCN2CCN(CCC(=O)Nc3ccc(C(=O)OC)cc3)CC2)cc1,-7%,0.2,12,-1,-35,
COC(=O)C1=C(C)NC(=O)NC1c1ccc(OCC(=O)N2CCCCC2)cc1 (stereo not given),-11%,0.3,3,-2,-14,
CC(C)Cc1cc(C(=O)NCCc2ccccc2)no1,18%,0.9,-7,4,-26,
N#CC1=C(N)n2c(s/c(=C\c3ccco3)c2=O)=C(C#N)C1c1ccco1 (stereo not given),-11%,3.8,7,-8,-61,
Nc1[nH]c(=O)[nH]c(=O)c1N=Nc1ccccc1Cl,.,5.6,.,-4,.,
Cc1cc(C)nc(NC(=O)c2cccc(Br)c2)n1,.,-2.7,.,-2,.,
CCOC(=O)Cc1csc(SCC(=O)NC(C)C23CC4CC(CC(C4)C2)C3)n1 (stereo not given),1%,-0.7,5,-11,-21,
Cc1ccccc1N1CCN(CCCN2C(=O)C3CCCCN3C2=O)CC1 (stereo not given),.,-0.8,.,-1,.,
Cc1nc(C(=O)N(C)C)nn1-c1cc(Cl)cc(Cl)c1,-13%,-3.0,4,-3,-14,
CCOC(=O)c1cc2n(c1/N=C/N(C)C)-c1ccccc1C2=O,1%,-70,-11,10,12,
O=C(c1ccco1)N1CCN(Cc2nnnn2CCc2ccccc2)CC1,3%,-0.2,-2,-10,-12,
O=[N+]([O-])c1ccc(S(=O)(=O)N(CCCN2CCOCC2)Cc2cccs2)cc1,2%,-1.7,2,4,.,
O=C(N/N=C/c1cccnc1)c1ccc(F)cc1,.,-0.8,.,-10,.,

# Among those listed so far, these contain bromine:
SMILES,Mtb growth,RecA intein inh,Arbovirus anti,Mtb bLac sens,YopH inh,others
CN(C)S(=O)(=O)c1ccc(NC(=O)c2ccc(Br)o2)cc1,2%,-1.4,-2,-7,-4,
Cc1cc(C)nc(NC(=O)c2cccc(Br)c2)n1,.,-2.7,.,-2,.,

# Entries listed so far that have a furan ring, fused or not (three):
SMILES,Mtb growth,RecA intein inh,Arbovirus anti,Mtb bLac sens,YopH inh,others
CN(C)S(=O)(=O)c1ccc(NC(=O)c2ccc(Br)o2)cc1,2%,-1.4,-2,-7,-4,
N#CC1=C(N)n2c(s/c(=C\c3ccco3)c2=O)=C(C#N)C1c1ccco1 (stereo not given),-11%,3.8,7,-8,-61,
O=C(c1ccco1)N1CCN(Cc2nnnn2CCc2ccccc2)CC1,3%,-0.2,-2,-10,-12,

# (next part)
SMILES,Mtb growth,RecA intein inh,Arbovirus anti,Mtb bLac sens,YopH inh,others
N#CC(NC(=O)OCc1ccccc1)c1ccccc1 (stereo not given),.,-0.1,.,-16,.,
COC(=O)C1=CN(C2CC2)C=C(C(=O)OC)C1c1ccc(C(F)(F)F)cc1,6%,-44,-7,-4,.,
O=C(O)C1CCC(c2ccc(-c3ccccc3)cc2)CC1 (stereo not given),.,2.6,.,-21,.,
CCCC/C=C/C(NC(=O)c1ccc(C(=O)OC)cc1)c1ccccc1 (stereo not given),0%,3.5,.,1,.,
Cc1cc(C)c(C)c(S(=O)(=O)N2CCN(C(=O)c3ccco3)CC2)c1C,.,2.9,.,-6,.,
COc1ccccc1CCC(=O)OCc1csc(CC(=O)Nc2ccccc2C)n1,.,1.2,.,5,.,
CCN(CC)S(=O)(=O)c1ccc(NC(=O)C2CCCO2)cc1 (stereo not given),1%,-1.7,3,-5,-3,
CC(=O)Nc1cccc(C(=O)/C=C/c2ccc(C)cc2)c1,34µM*,2.5,20,98,-6,
CC1CN(C(=O)c2cc3c(s2)CCC3)CC(C)O1 (stereo not given),-7%,-0.1,0,5,-36,
Cc1ccc(NC(=O)CSc2nc(N)cc(N)n2)cc1S(=O)(=O)N1CCOCC1,-2%,-1.3,.,-1,.,
Cc1ccc(C(=O)c2cc([N+](=O)[O-])ccc2N2CCOCC2)cc1,12%,-6.5,-6,.,-5,
CC12CCC(=O)N1C(C(=O)Nc1nc3ccc(Cl)cc3s1)CS2 (stereo not given),.,2.3,.,8,.,
N#Cc1c(NC(=O)C2CC=CCC2C(=O)O)sc2c1CCCCCC2 (stereo not given),-3%,-1.5,8,-3,-23,
COc1ccc(C(=O)Nc2cccc(/C(C)=N/NC(=O)c3ccc([N+](=O)[O-])cc3)c2)cc1OC,4%,-3.4,4,16,-18,
CC(C)CC(NC(=O)C1CCCCC1)C(=O)NCc1ccccn1 (stereo not given),-10%,-2.0,11,?,-41,Arbovirus anti repeat=7

# Of the compounds above, 2 have an aryl methoxy group:
SMILES,Mtb growth,RecA intein inh,Arbovirus anti,Mtb bLac sens,YopH inh,others
COc1ccccc1CCC(=O)OCc1csc(CC(=O)Nc2ccccc2C)n1,.,1.2,.,5,.,
COc1ccc(C(=O)Nc2cccc(/C(C)=N/NC(=O)c3ccc([N+](=O)[O-])cc3)c2)cc1OC,4%,-3.4,4,16,-18,

# The list goes on:
SMILES,Mtb growth,RecA intein inh,Arbovirus anti,Mtb bLac sens,YopH inh,others
Cn1nc(C(=O)NCc2ccc(F)cc2)c2ccccc2c1=O,-14%,-1.2,-8,-6,4,
Cn1cc(/C=C(\NC(=O)c2ccccc2Cl)C(=O)NCCN2CCOCC2)c2ccccc21,.,0.2,.,-2,.,
CCc1nc2ccccc2nc1N1CCN(S(=O)(=O)c2c(C)cc(Cl)cc2C)CC1,2%,2.9,.,-8,.,
Cc1cc(C)nc(N2CCCC(C(=O)NC3CC3)C2)n1 (stereo not given),.,0.5,.,0,.,
CC(=O)N1C(C)(C)CC(=NOS(=O)(=O)c2ccccc2)CC1(C)C,4%,.,3,.,.,
Cc1nc(-c2ccccc2)sc1-c1nc(-c2ccncc2)ncc1S(=O)(=O)c1ccccc1,.,-2.2,-21,-3,-31,
CCC(=O)Nc1ccc(S(=O)(=O)N2CCC(c3nc4ccccc4[nH]3)CC2)cc1,.,-1.7,.,-10,.,
COc1nnc(-c2ccc(C)c(S(=O)(=O)NC(C)(C)CO)c2)c2ccccc12,.,0.3,.,-8,.,
CCCn1nnc(NC(=O)COc2ccc(CC)cc2)n1,15%,0.5,4,98,3,
O=C(C1CCCN1S(=O)(=O)c1cccc2nsnc12)N1CCN(c2ccc(F)cc2)CC1 (stereo not given),.,1.2,.,-5,.,
COc1ccc(CC(=O)N2N=C(C)CC2(O)C(F)(F)F)cc1OC (stereo not given),-3%,-7.5,5,-5,.,
Cn1cc(S(=O)(=O)N2CCc3ccccc32)cc1C(=O)Nc1ccc(Cl)cc1,.,0.1,.,6,.,
CCOC(=O)c1c(NC(=O)c2ccccc2)sc2c(O)c(CN(CC)CC)ccc12,-3%,-1.6,4,-4,-46,
S=C(NCc1ccccc1)N/N=C/c1cccs1,.,4.7,.,97,.,
CCCCn1c(N)c(N(CC(C)C)C(=O)Cc2ccc3c(c2)OCCO3)c(=O)[nH]c1=O,.,16,.,-15,.,
COc1ccc(-c2nnn(CC(=O)N(CCN3CCOCC3)C(C(=O)NC3CCCCC3)c3ccco3)n2)cc1 (stereo not given),-7%,0.5,2,-6,.,
COc1cccc(OC)c1C(=O)Nc1nc(COc2ccccc2)cs1,5%,0.6,-1,14,.,
CCCCN(c1ccc(C(=O)OC)cc1)S(=O)(=O)c1ccccc1,-5%,11,6,-1,.,
CS(=O)(=O)c1ccccc1C(=O)Nc1ccccc1Cc1ccccc1,.,1.1,.,-7,.,
CC(C)(C)OC(=O)NCCCC(CCCNC(=O)OC(C)(C)C)C(=O)O,2%,-0.3,2,-4,-27,
Nc1nonc1N/N=C\c1ccccc1,0%,-1.3,.,-1,.,
O=C(CSc1nc(Cc2ccccc2)nc2ccccc12)Nc1nc2c(s1)CCCC2,-10%,23,6,0,-29,
Nc1c(NC=O)c(=O)n(Cc2ccccc2)c(=O)n1Cc1ccccc1,.,0.1,.,0,.,
CCOc1ccc(C(C)=O)cc1COc1ccc(-c2nnco2)cc1,.,0.4,.,-3,.,
N/C(=N\S(=O)(=O)c1cc(C(F)(F)F)cc(C(F)(F)F)c1)c1ccccc1,-8%,-5.1,.,-7,.,
CC1Cc2ccccc2N1C(=O)CN1CCCCC1 (stereo not given),.,0.8,.,-4,.,
O=C(N/N=C/c1cn(-c2ccccc2)nc1-c1cccs1)c1ccccc1F,13%,11,-9,86,-8,
CCc1ccc(N(C(=O)Cn2nnc(-c3ccccc3)n2)C(C(=O)NC2CCCCC2)c2ccccn2)cc1 (stereo not given),14%,-0.7,7,5,-4,
CCOC(=O)N1CCN(C(=O)CN(c2ccccc2)S(C)(=O)=O)CC1,6%,-2.2,4,1,.,
O=C1/C(=C/c2ccc([N+](=O)[O-])cc2)CCC1C1CCCC1 (stereo not given),.,2.7,.,7,.,
Cc1c(C(=O)N2CCC[C@H]2CO)oc2c(F)cccc12,.,1.1,.,2,.,
O=[N+]([O-])c1cccc2c(S(=O)(=O)N3CCCCC3)cccc12,.,-1.6,.,-1,.,
CCN1C(=O)/C(=C\c2cn(-c3ccccc3)nc2-c2cccnc2)SC1=S,0%,-7.0,-1,.,.,
O=S(=O)(Nc1cccc(Cl)c1)c1ccc(-n2cccn2)cc1,.,4.5,.,-3,.,
O=C(Nc1ccccc1C(=O)N1CCCC1)c1cccc(S(=O)(=O)N2CCCCC2)c1,-4%,5.9,3,4,9,
CCOC(=O)C1CCN(S(=O)(=O)c2ccc(C(C)=O)cc2)CC1,-7%,-1.8,12,-5,-5,
Cc1ccc(NC(=O)CCl)cc1S(=O)(=O)N1CCCCCC1,69%,52*,-33,96,.,
COc1ccc2c(c1OC)C(=O)N1N=C(c3ccc(O)cc3)CC21 (stereo not given),7%,-1.6,7,57,16,
COc1ccc(NC(=S)NC(=O)c2cncc(Br)c2)cc1,.,0.2,.,-12,.,
O=C(CSc1ccc(-c2ccc(F)cc2)nn1)N1CCCc2ccccc21,11%,7.0,-1,-2,-25,
CCc1ccc(CN2CCC(n3nccc3NC(=O)c3ccccc3Cl)CC2)cc1,.,-0.2,.,-4,.,
COc1cccc(/C=N/NC(=O)CNC(=O)c2ccco2)c1O,3%,-1.1,.,-5,.,
COc1ccc(C(=O)C2CCCN(C(=O)c3cc(C)on3)C2)cc1F (stereo not given),.,-2.0,.,-6,.,
CCCCn1c(N)c(N(CC(C)C)C(=O)CN2C(=O)c3ccccc3C2=O)c(=O)[nH]c1=O,.,-2.2,.,1,.,
Cn1cccc1C(=O)c1ccc(Cl)cc1Cl,6%,2.3,3,1,-40,
COC(=O)c1ccccc1NC(=O)c1ccc(COc2cccc3ccccc23)o1,2%,-3.5,9,-6,-24,
O=C(CSc1nnc(-c2ccc3c(c2)OCO3)n1-c1ccccc1)c1ccc(Cl)cc1,5%,-1.4,-7,1,-16,
FC(F)(F)c1ccc(CN2CCN(Cc3ccco3)CC2)cc1,.,-5.9,.,-6,.,
CS(=O)(=O)c1ccc(C(=O)OC2CCOC2=O)cc1[N+](=O)[O-] (stereo not given),.,2.7,.,-3,.,
COc1cccc(NC(=O)C2CCCN2C(=O)Nc2ccccc2F)c1 (stereo not given),-5%,1.6,1,-3,-24,
COc1cc(OC)nc(/N=C/N(C)C)n1,6%,.,8,.,.,
COc1ccc(/C=C/C(=O)Oc2ccc(C)cc2)cc1,.,-1.1,.,64,.,
CC(Oc1ccc(Cl)cc1Cl)C(=O)NNC(=O)c1cccnc1 (stereo not given),.,0.7,.,-3,.,
Cc1nc(Cl)sc1C(=O)Nc1ccc(C(F)(F)F)cc1,.,5.9,.,7,.,
O=[N+]([O-])c1ccccc1S(=O)(=O)NC1CC2CCC1C2 (stereo not given),.,-2.9,.,-5,.,
Cc1ccc(-n2c(SCC(=O)N3CCCc4ccccc43)nnc2-c2cccnc2)c(C)c1,0%,.,-2,6,4,
Cc1ccc(NC(=S)N2CCC(NC(=O)c3cccc(F)c3)CC2)cc1,.,-0.1,.,9,.,
